CBX7 inh = CBX7 chromodomain binding inhibitors, primary screen, biochemical, AlphaScreen | Chromobox protein homolog 7 (Homo sapiens), O95931 | AlphaScreen His6-CBX7 / biotin-H3K27me3 peptide binding; active compounds read low | normalised signal (fraction of DMSO) (test concentration not listed) | 66,000 tested, 1.1% active | AID 1224903, 2016; in the data active = normalised signal below about 0.5;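 also: 100 nL library stock added to about 20 µL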
Target sequence (O95931 whole entry, looked up): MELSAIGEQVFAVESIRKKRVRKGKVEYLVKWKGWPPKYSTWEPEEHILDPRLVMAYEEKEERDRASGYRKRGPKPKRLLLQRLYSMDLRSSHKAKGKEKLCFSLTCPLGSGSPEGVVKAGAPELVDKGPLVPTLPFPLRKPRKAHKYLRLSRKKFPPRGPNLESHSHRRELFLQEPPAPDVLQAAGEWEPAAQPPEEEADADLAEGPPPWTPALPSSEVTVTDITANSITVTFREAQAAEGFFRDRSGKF
CBX7 inh z-score = second read-out of CBX7 inh, no call of its own (marks repeat the call); z-score; measured here: z-score of CBX7 signal; some inactives read as strong as hits; reference of the scale not given here;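 same signal on another scale; lower means less binding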
Starred values were filed as active, the others as inactive; & = joins results of further samples. Not all compounds are listed; count on the stated rates, not on these rows.

SMILES	CBX7 inh	CBX7 inh z-score
Cc1c(C(=O)O)oc2ccc(S(=O)(=O)N3CCOCC3)cc12	1.02	0.273
CCOC(=O)c1cnc2c(Cl)cccc2c1Nc1cccc(OC)c1	0.944	-0.354
CCOc1ccc(N2CC(C(=O)Nc3ccccc3OC)CC2=O)cc1 (stereo not drawn)	0.994	-0.158
CCCN(C(=O)Cn1ncc2c1-c1cc(C)ccc1OC2)c1ccc(OCC)cc1	1.01	0.292
CN(c1ccccc1)S(=O)(=O)c1ccc(C(=O)Nc2nc(-c3ccccn3)cs2)cc1	0.167*	-6.92*
CCC1CCCCN1CCCNC(=O)c1cc2c(-c3cccc(OC)c3)nn(C)c2s1 (stereo not drawn)	1.01	0.294
COc1ccc(CNC(=O)c2nc(-c3cccc(C)c3)oc2C)cc1	0.786	-2.99
CCOCCCNC(=O)c1cc(Nc2ccccc2C)nc2ccccc12	1.03	0.496
O=C(CCn1c(=O)[nH]c2ccsc2c1=O)NCCc1ccccc1	1.4	3.02
Cc1oc(-c2ccc(Cl)cc2)nc1Cn1c(SCc2ccc(F)cc2)nc2ccncc21	0.971	-1.37
COc1ccc(-c2cc(C(F)(F)F)n3nc(C(=O)NCC4CCCO4)c(Cl)c3n2)cc1OC (stereo not drawn)	0.991	-0.267
Cc1cc(=O)oc2c(CN3CCCCC3)c(O)ccc12	1.03	0.724
COCc1cc(=O)n2c(-c3ccccc3OC)n[nH]c2n1	0.926&1.14	-1.97&2.79
CCOc1ccc(-n2nc3ccc(NC(=O)c4cc5ccccc5o4)cc3n2)cc1	0.952	-0.513
O=c1c2c(-c3ccccc3)csc2nc2n1CCCCC2	1.01	0.355
O=c1c2ccccc2nc2n1CCN2Cc1ccc(Cl)cc1	0.975	-0.387
COc1ccc(-c2nc(CSCC(=O)NCc3cccs3)c(C)o2)cc1OC	1.07	0.947
CCC(C)NC(=O)C1CCN(Cc2nc(-c3cccc(Cl)c3)oc2C)CC1 (stereo not drawn)	1.02	0.446
Cc1cccc2nc(-c3cccc(Cl)c3)c(Nc3ccc4c(c3)OCCO4)n12	0.981	-0.304
Cc1ccc(CC2C(=O)N(c3ccc(C)cc3)C(=O)C2C)cc1 (stereo not drawn)	1.18	1.33

Whole records as entered above. Order of screens: CBX7 inh	CBX7 inh z-score
Entry for COCc1cc(=O)n2c(-c3ccccc3OC)n[nH]c2n1 : 0.926&1.14	-1.97&2.79
Entry for COc1ccc(CNC(=O)c2nc(-c3cccc(C)c3)oc2C)cc1 : 0.786	-2.99

Continued.
SMILES	CBX7 inh	CBX7 inh z-score
Cn1c(=O)c(-c2ccc3ccccc3n2)c(C#N)c2ccccc21	0.955	-1.23
O=C(Nc1c2c(nn1-c1ccc(Cl)cc1)CSC2)c1ccccc1Br	1.12	2.68
CCCCNC(=O)c1ccc2c(c1)N(Cc1cccc(Cl)c1)C(=O)c1ccccc1S2(=O)=O	0.957	-0.271
O=C(Cn1nc(Cc2ccncc2)c2ccccc2c1=O)N1CCOCC1	1.09	2.09
COc1cccc(-n2nnnc2SCC(=O)NCCc2ccccc2)c1	1.1	1.51
Cc1cccc(NC(=O)Cn2cc(S(=O)(=O)c3ccccc3)c(=O)c3cc(F)ccc32)c1	1.05	0.801
COc1ccc(NC(=O)c2ccc3c(c2)C(=O)N(c2cccc(C)c2)C3=O)cc1	0.82	-6.4
Brc1ccc(-c2nnc3sc(CNC4CCCCC4)cn23)cc1	1.05	0.599
Cc1oc(-c2cccc(Cl)c2)nc1CS(=O)(=O)CC(=O)NC(C)c1ccccc1 (stereo not drawn)	0.97	-1.43
O=C(Nc1ccccc1C(=O)O)c1ccc2c(c1)C(=O)N(c1ccccn1)C2=O	1.02	0.341
CCCCNC(=O)C1CCCN(Cc2nc(-c3ccc(Cl)cc3)oc2C)C1 (stereo not drawn)	1.08	2.09
COc1cccc(CNC(=O)c2ccc3nc(N4CCOCC4)sc3c2)c1	1.24	2.29
COCCNC(=O)C(C)N1C(=O)COc2ccc(C)cc21 (stereo not drawn)	1.05	0.68
COc1ccc(C2C(Oc3ccc(Cl)cc3)C(=O)N2c2cc(C)ccc2C)cc1OC (stereo not drawn)	0.952	-1.05
CCc1ccc(NC(=O)Cn2cc(S(=O)(=O)c3ccccc3)c(=O)c3cc(OC)ccc32)cc1	0.925	-1.05
COc1ccc(-c2nc(CSCC(=O)NCCC(C)C)c(C)o2)cc1	0.983	-0.797
O=C(NCCCN1CCCC1)c1cc(=O)[nH]c2ccc(S(=O)(=O)N3CCCCCC3)cc12	1.09	0.998
CC(C)NC(=O)c1ccccc1NC(=O)CN1C(=O)c2ccccc2S1(=O)=O	1.09	2.26
COc1ccc(-c2cc(C(F)(F)F)nc(-n3nccc3C)n2)cc1	0.976	-0.621
Cc1ccc(Nc2cc(C)c3ccc(O)cc3n2)cc1F	0.964	-0.717

Brought forward from above: seven entries, followed by the next part.
SMILES	CBX7 inh	CBX7 inh z-score
COc1ccc(C2C(Oc3ccc(Cl)cc3)C(=O)N2c2cc(C)ccc2C)cc1OC (stereo not drawn)	0.952	-1.05
CCc1ccc(NC(=O)Cn2cc(S(=O)(=O)c3ccccc3)c(=O)c3cc(OC)ccc32)cc1	0.925	-1.05
COc1ccc(-c2nc(CSCC(=O)NCCC(C)C)c(C)o2)cc1	0.983	-0.797
O=C(NCCCN1CCCC1)c1cc(=O)[nH]c2ccc(S(=O)(=O)N3CCCCCC3)cc12	1.09	0.998
CC(C)NC(=O)c1ccccc1NC(=O)CN1C(=O)c2ccccc2S1(=O)=O	1.09	2.26
COc1ccc(-c2cc(C(F)(F)F)nc(-n3nccc3C)n2)cc1	0.976	-0.621
Cc1ccc(Nc2cc(C)c3ccc(O)cc3n2)cc1F	0.964	-0.717
Cc1cccc2c1-c1sc(C(=O)Nc3cc(F)ccc3F)cc1CO2	1.15	4.39
CC(C)c1ccc(Nc2cc(C(=O)NCCCN(C)Cc3ccccc3)c3ccccc3n2)cc1	0.979	-0.33
CCC(=O)N(CCC1(c2ccc(OC)cc2)CCOC(C)(C)C1)Cc1ccc(Cl)cc1 (stereo not drawn)	1.04	0.994
COc1ccc(NC(=O)CC2C(=O)N(c3ccccc3)C(=O)N2CCc2cccs2)cc1 (stereo not drawn)	0.991	-0.359
O=C(CSCc1cnn(-c2ccccc2)c1-n1cccc1)NCc1ccccc1F	0.976	-1.07
Cc1c(C(=O)NCc2ccccc2Cl)sc2ncn(CC(=O)N3CCCC(C)C3)c(=O)c12 (stereo not drawn)	1.04	0.303
CC(C)COc1ccc(C(=O)Nc2cccc(-c3nc4ccccc4[nH]3)c2)cc1	1.03	0.422
Cc1ccc2nc(-c3ccccn3)c(Nc3ccc4c(c3)OCCO4)n2c1	0.00102*	-21.6*
CCCOc1ccc(-c2nc(N3CCOCC3)c3ccccc3n2)cc1	1.07	0.085
CCOC(=O)c1c(CN2CCCCC2)n(-c2ccccc2)c2cc(Br)c(OC)cc12	1.02	0.443
CCc1ccc(NC(=O)Cn2c(C(=O)OC)cc3occc32)cc1	1.03	0.913
CC(=O)N1Cc2ccccc2C(C)CC12CCCC2 (stereo not drawn)	0.996	-0.0398
COc1ccccc1-c1c(-c2ccc(OCc3ccccc3)cc2O)n[nH]c1C	0.67	-7.52
CCC(C(=O)NC1CCCC1)n1c(SCc2cccc(F)c2)nc2ccncc21 (stereo not drawn)	0.969	-0.782
O=C(Cc1c(C(=O)O)[nH]c2ccccc12)Nc1ccc(C(F)(F)F)cc1	1	-0.00817
CCOC(=O)c1ccc(Nc2nc3nonc3nc2NC)cc1	1.06	1.2
Cc1cccc2c1-c1sc(C(=O)N3CCOCC3)cc1CO2	1.04	1.35
CCOC(=O)c1cnc2c(C)c(Cl)ccc2c1Nc1ccc(N2CCOCC2)cc1	0.671	-7.14
Cc1ccccc1Cc1c(C)nc2c(C(=O)N3CCN(c4cccc(C)c4C)CC3)cnn2c1C	0.872	-3.53
COc1ccc(NC(=O)CN(c2ccc(C)cc2)S(=O)(=O)c2c(C)nn(C)c2C)cc1	1.13	0.92

Three entries from above, with two lines to a compound:
Fields: CBX7 inh, CBX7 inh z-score
O=C(Cc1c(C(=O)O)[nH]c2ccccc12)Nc1ccc(C(F)(F)F)cc1
 : 1, -0.00817
CCc1ccc(NC(=O)Cn2c(C(=O)OC)cc3occc32)cc1
 : 1.03, 0.913
CC(C)c1ccc(Nc2cc(C(=O)NCCCN(C)Cc3ccccc3)c3ccccc3n2)cc1
 : 0.979, -0.33

(cont.)
SMILES	CBX7 inh	CBX7 inh z-score
Cc1ccc(-c2nc(C(=O)NC3CCCC3)c(C)o2)cc1	1.02	0.616
O=c1c2cccnc2n(Cc2ccc(F)cc2)c(=O)n1Cc1ccccc1Cl	1.02	0.421
CCOC(=O)c1cc(C)sc1NC(=O)c1ccc(F)cc1	1.09	3.67
Cc1c(C(=O)NCCCN2CCC(C)CC2)sc2ncn(CC(=O)N3CCCCC3C)c(=O)c12 (stereo not drawn)	0.931	-1.65
COc1cc2c(cc1OC)C1(CCCC1)CNC2C (stereo not drawn)	1.01	0.441
Cc1ccc(C(=O)Nc2ccccc2F)cc1S(=O)(=O)N1CCOCC1	1.04	0.04
COCCNC(=O)c1cc2c(n(-c3ccc(C)cc3)c1=O)CC(C)(C)CC2=O	1.02	0.0845
O=C(NCc1cccnc1)c1cc(-c2ccccc2)nc2ccccc12	1.03	1.45
CC(C)CN(CCNC(=O)c1cc(-c2cccnc2)nc2ccccc12)CC(C)C	0.94	-1.19
COc1ccc2c(c1)C1CC(C)(NC(=O)C1c1nc3ccccc3s1)O2 (stereo not drawn)	0.971	-0.834
Cn1nc(CC(=O)Nc2ncc(Br)s2)c2ccccc2c1=O	1.07	0.706
Cc1cc2cc(CCNC(=O)c3ccc(S(=O)(=O)N(C)C)cc3)c(=O)[nH]c2cc1C	1.11	1.44
O=C(CSc1nccn1-c1ccccc1)NCc1ccc(F)cc1	0.977	-0.848
CSc1ccc(-c2nc(Nc3c(Cl)cccc3Cl)sc2-c2ccccc2)cc1	0.879	-1.31
Cc1cccc(OCc2nc(C#N)c(NCCCN(C)C)o2)c1	0.971	-0.182
O=C1CC(N2CCN(c3ccccn3)CC2)C(=O)N1c1ccc(Br)cc1 (stereo not drawn)	0.91	-1.42
O=C(NCc1ccccn1)c1cc(=O)[nH]c2ccc(S(=O)(=O)N3CCCCCC3)cc12	0.944	-0.749
Cc1cc(C)c2oc(-c3cc(NC(=O)Cc4ccccc4)ccc3Cl)nc2c1	1.17	1.64
CCOc1ccc(C2=C(Cl)C=C(c3ccc(F)cc3)c3ccccc3O2)cc1	1	0.0559
CCOc1ccc(N2C(=O)CC(NCCCc3ccccc3)C2=O)cc1 (stereo not drawn)	0.997	-0.158
O=C(O)c1[nH]c2ccccc2c1CC(=O)N1CCN(c2ccccn2)CC1	1.02	0.522
Cc1ccc(Cl)cc1N1CCN(CCNC(=O)C(C)n2ncc3ccccc32)CC1 (stereo not drawn)	0.898	-1.59
CCOc1ccc(C(=O)NCCc2cc3c(OC)ccc(OC)c3[nH]c2=O)cc1	0.913	-1.51
Cc1cccc(Cn2c(COc3ccc(Cl)cc3Cl)nc3ccccc32)c1	0.984	-0.466
CCc1ccc(OC(C)C(=O)Nc2c(C(=O)c3ccccc3)oc3ccccc23)cc1 (stereo not drawn)	1.04	0.15
COc1ccc2nc(N3CCCC(C(=O)NC(C)c4ccccc4)C3)sc2c1 (stereo not drawn)	1.04	0.716
CCOc1cc2c(cc1OCC)C(c1ccc(OC)c(OC)c1)CC(=O)N2 (stereo not drawn)	1.02	0.1
O=C(NCCN1CCOCC1)c1cc(Sc2ccc(F)cc2)nc2ccccc12	0.931	-0.0684
COc1ccc(NC(=O)c2cc3sccc3n2Cc2ccc(F)cc2)cc1Cl	1.07	1.73
Cc1ccc(CCNC(=O)C2CCN(C(=O)N(C)C)CC2)cc1	0.997	-0.153
O=C(CN1C(=O)CCSc2ccccc21)NCc1ccccn1	1	0.113
COc1ccc(-c2nnc(Nc3ccc(CC(N)=O)cc3)c3ccccc23)cc1	0.995	-0.0603
CCCn1c(CNC(=O)Cc2ccccc2)nc2ccccc21	1.12	1.2
O=C(CC1(O)C(=O)N(CCc2ccccc2)c2ccccc21)c1cccnc1 (stereo not drawn)	0.863	-1.31
CN(Cc1ccccc1)C(=O)CN1C(=O)COc2ccc(C(C)(C)C)cc21	0.648	-6.08
NC(=O)c1nn(-c2ccccc2)nc1NC(=O)COc1ccc(Cl)cc1	1.21	2.05
CC(C)c1ccc(NS(=O)(=O)c2ccc3[nH]cc(C(=O)NCc4cccnc4)c(=O)c3c2)cc1	0.901	-1.84
NS(=O)(=O)c1ccc(Nc2nnc(-c3ccc(O)cc3)c3ccccc23)cc1	0.851	-1.68
COc1ccc(OCC(=O)Nc2cc(-c3nc4cc(C)ccc4o3)ccc2Cl)cc1	1.19	1.79
O=C(NC1CC1)c1cnn2c(C(F)(F)F)cc(-c3ccccc3)nc12	1.03	1.37
CCCCNC(=O)c1cc(Nc2ccc(C(C)C)cc2)nc2ccccc12	1.07	0.0686
O=C(Nc1nnc(-c2ccc(F)cc2)o1)c1ccc(S(=O)(=O)N2CCCC2)cc1	0.0134*	-4.34*
C=CCN1C(=O)CSc2ccc(C(=O)NCCC3=CCCCC3)cc21	1.1	1.06
COCCNC(=O)C1CCN(Cc2nc(-c3ccc(Cl)cc3)oc2C)CC1	0.957	-0.058
COc1ccccc1N1C(=O)CC(N2CCN(c3ccc(Cl)cc3)CC2)C1=O (stereo not drawn)	0.768	-1.65
CCCCCn1c(=O)[nH]c2cc(C(=O)NCCN3CCC(C)CC3)ccc2c1=O	1.06	1.13
Cc1cccc(OCC(=O)Nc2ccc3nc(N4CCN(c5ncccn5)CC4)cc(C)c3c2)c1	1.02	0.853
COc1ccc(OC)c(NC(=O)c2cn(CC(C)C)c(=O)c3cc(OC)c(OC)cc23)c1	0.966	-1.28
CCOc1ccccc1CN1C(=O)CCC1(C)C(=O)NC(C)CC (stereo not drawn)	1.06	0.986
CC1CCN(Cc2cc(Cl)c(O)c3ncccc23)CC1	0.00286*	-27.6*

As entered above.
`CCOC(=O)c1cnc2c(C)c(Cl)ccc2c1Nc1ccc(N2CCOCC2)cc1` @ CBX7 inh z-score = -7.14
`O=c1c2cccnc2n(Cc2ccc(F)cc2)c(=O)n1Cc1ccccc1Cl` @ CBX7 inh = 1.02

Compound activity deposited in PubChem by several laboratories.
